# PABP polyA inh: PABP poly(A) RNA binding inhibitors, primary screen, biochemical, fluorescence polarization, uHTS; Polyadenylate-binding protein 1 (Homo sapiens), P11940; inhibition, % at 35 µM; 290,000 compounds, 1% hits; AID 2014, 2009;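 active = 50% or more with normal probe brightness, or confirmed in later tests; about a fifth of its hits are not listed in these tables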;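 note: calls also rest on retests at 20 µM and on dose response follow-up; controls were probe without protein and protein plus probe with vehicle; some compounds called inactive have numbers as strong as hits; many hits fall short of the cut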
# Target sequence (P11940 whole entry, looked up): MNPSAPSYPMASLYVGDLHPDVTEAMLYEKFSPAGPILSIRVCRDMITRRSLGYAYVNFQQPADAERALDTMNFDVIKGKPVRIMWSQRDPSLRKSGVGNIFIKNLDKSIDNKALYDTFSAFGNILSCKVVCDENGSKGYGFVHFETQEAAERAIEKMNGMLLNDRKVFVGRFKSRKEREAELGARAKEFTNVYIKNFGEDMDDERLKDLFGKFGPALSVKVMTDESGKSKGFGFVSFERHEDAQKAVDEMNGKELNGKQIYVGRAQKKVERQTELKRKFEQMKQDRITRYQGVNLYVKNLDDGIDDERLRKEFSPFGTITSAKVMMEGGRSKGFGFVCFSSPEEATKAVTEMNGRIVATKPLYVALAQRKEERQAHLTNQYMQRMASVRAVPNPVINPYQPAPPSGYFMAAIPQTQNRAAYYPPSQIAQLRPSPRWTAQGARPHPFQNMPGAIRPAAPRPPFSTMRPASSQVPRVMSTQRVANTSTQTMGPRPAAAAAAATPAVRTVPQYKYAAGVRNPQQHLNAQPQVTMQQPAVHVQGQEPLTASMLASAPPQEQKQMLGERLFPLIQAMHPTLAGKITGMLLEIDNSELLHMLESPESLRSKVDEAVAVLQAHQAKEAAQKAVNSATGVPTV
# CSC inhib: cancer stem cell viability inhibitors, primary screen, luminescence; cancer stem cell-like cells viability; inhibition, % at 7.5 µM; 300,000 compounds, 1.1% hits; AID 2717, 2010;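 active = mean at 75% or more and at least half the replicates too; tested in HMLE shEcad cells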;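 note: 0% = median of negative and 100% = median of positive control wells; the first replicate is given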
# eIF4H FP inh: human eIF4H binding inhibitors, primary screen, translation initiation inhibitor project, biochemical, uHTS, fluorescence polarization. eIF4H fluorescence polarization binding assay. inhibition, % at 35 µM. 290,000 compounds, 0.94% hits;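 active = 50% or more with normal probe brightness, or confirmed in later tests; about a fifth of its hits are not listed in these tables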;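 note: calls also rest on retests at 20 µM and on dose response follow-up; 0% = protein and probe with vehicle and 100% = probe without protein; strong numbers were not always called active; many hits fall short of the cut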
# Yeast UUG start: modulators of yeast start codon fidelity, primary screen, whole organism, S. cerevisiae, single point, plate reader. activity score, % at 18.7 µM. S. cerevisiae UUG-firefly luciferase reporter, luminescence/redox ratio. 350,000 compounds, 0.13% hits;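 active = replicate mean at a twofold rise or more, about +100% in these data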;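 note: firefly luciferase made from a UUG start codon reports start codon fidelity; reporter light over untreated wells divided by growth signal over untreated wells; some hits fall short of that in this replicate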
# Rce1 inhib: yeast Rce1p protease inhibitors, primary screen, biochemical, fluorescence, cell-free homogeneous; CAAX prenyl protease 2 (Saccharomyces cerevisiae (strain ATCC 204508 / S288c)), Q03530; yeast membranes, quenched prenylated peptide cleavage fluorescence; calls only; 290,000 compounds, 0.27% hits;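 active = fall in fluorescence gain of 50% or more versus controls, with final raw signal at or below 3038400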;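 note: plate controls were neutral control wells for no effect and wells lacking membranes for full effect; tested at 10 µM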
# MT1-MMP act inh: blockers of MT1-MMP proenzyme processing, primary screen, HT1080 RFP-PRO-GFP cells, GFP/RFP fluorescence; AID 651647, 2012; GFP/RFP ratio fluorescence, overnight; percent of plate control window, DMSO zero; GFP/RFP ratio change, % at 20 µM; 360,000 compounds, 0.061% hits; Matrix metalloproteinase-14 (Homo sapiens), P50281;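 active = GFP/RFP ratio change of at least 30% with cell ATP level not reduced by more than half and red fluorescence within 50% of control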; note: strong numbers were not always called active
#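 Test system: HT1080 cells expressing an RFP-PRO-GFP fluorescent reporter construct / Compound dosing: single-point 20 µM compound, 1% DMSO / Schedule: cells overnight before dosing, compound overnight, 37 °C, 5% CO2 / Evaluation: GFP/RFP fluorescence ratio / Control set: DMSO and RFP-L50D-GFP cell wells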
# Env fusion inh: inhibitors of HIV-1 Env-driven cell-cell fusion, primary screen, HeLa-JRFL effector, CEM21 target cells, luciferase; inhibition, % at 12.3 µM; 360,000 compounds, 1.1% hits; AID 651610, 2012;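 active = mean replicate inhibition score of at least 50 and every replicate individually at or above 50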;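 note: 0% = plate neutral controls and 100% = maraviroc near 300 nM; one replicate is shown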
# MT1-MMP act inh RFP: second read-out of MT1-MMP act inh, no call of its own (marks repeat the call); RFP signal change, %; measured here: RFP expression control read;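 0 = vehicle wells; hits needed this value within 50% of zero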
# Active calls of the source: *; i = inactive; . = not tested or not shown.
# Preview, 11 compounds:
# Every second line gives: Yeast UUG start	Env fusion inh	eIF4H FP inh	MT1-MMP act inh RFP	MT1-MMP act inh	Rce1 inhib	PABP polyA inh	CSC inhib
COCCn1c(=S)[nH]c2cc(C(=O)N3CC(C)CC(C)C3)ccc2c1=O (stereo unspecified)
  -19	4	-11	-17	1	i	-3	-6
COCCn1cnnc1SCC(=O)Nc1cc(C)on1
  .	-12	.	8	4	.	.	-11
CNC(=O)[C@H](C)[C@@H]1C[C@@]1(C)[C@@H](NC(=O)OCc1ccccc1)c1ccccc1
  6	-10	-3	-4	-3	i	9	0
CC(OC(=O)CC(NC(=O)c1ccccc1Cl)c1ccccc1)C(=O)Nc1cccc(Cl)c1Cl (stereo unspecified)
  .	5	5	-1	-3	i	-12	2
Cc1cccc(C(=O)N(Cc2ccc(C)o2)C2CCS(=O)(=O)C2)c1 (stereo unspecified)
  2	15	-14	1	-5	i	-1	-12
CCOc1ccc(S(=O)(=O)N2CCC(C(=O)N3CCN(c4ccccc4F)CC3)CC2)cc1C
  -8	.	-6	-5	7	i	-3	-6
CCOC(=O)Cn1c(=NC(=O)CC)sc2c(C)cc(C)cc21
  -8	-9	-7	-2	1	i	-6	-19
C#CCOC(=O)c1ccccc1C(=O)N(CC)CC
  -20	.	2	6	-1	i	-5	-19
O=C(O)C(Cc1c[nH]c2ccccc12)NS(=O)(=O)c1ccc(Cl)cc1 (stereo unspecified)
  -17	-7	-8	4	-3	i	-9	-15
CCCOc1cc(C)c(S(=O)(=O)NC2CC(C)(C)NC(C)(C)C2)cc1C
  .	.	-6	-2	0	i	5	-3
O=C1CC[C@@H](CN(Cc2ccccn2)Cc2nc(Cc3ccccc3)no2)N1
  -7	-5	0	2	5	i	5	2

# Results, from the first entry:
# Every second line gives: Yeast UUG start	Env fusion inh	eIF4H FP inh	MT1-MMP act inh RFP	MT1-MMP act inh	Rce1 inhib	PABP polyA inh	CSC inhib
COCCn1c(=S)[nH]c2cc(C(=O)N3CC(C)CC(C)C3)ccc2c1=O (stereo unspecified)
  -19	4	-11	-17	1	i	-3	-6
COCCn1cnnc1SCC(=O)Nc1cc(C)on1
  .	-12	.	8	4	.	.	-11
CNC(=O)[C@H](C)[C@@H]1C[C@@]1(C)[C@@H](NC(=O)OCc1ccccc1)c1ccccc1
  6	-10	-3	-4	-3	i	9	0
CC(OC(=O)CC(NC(=O)c1ccccc1Cl)c1ccccc1)C(=O)Nc1cccc(Cl)c1Cl (stereo unspecified)
  .	5	5	-1	-3	i	-12	2
Cc1cccc(C(=O)N(Cc2ccc(C)o2)C2CCS(=O)(=O)C2)c1 (stereo unspecified)
  2	15	-14	1	-5	i	-1	-12
CCOc1ccc(S(=O)(=O)N2CCC(C(=O)N3CCN(c4ccccc4F)CC3)CC2)cc1C
  -8	.	-6	-5	7	i	-3	-6
CCOC(=O)Cn1c(=NC(=O)CC)sc2c(C)cc(C)cc21
  -8	-9	-7	-2	1	i	-6	-19
C#CCOC(=O)c1ccccc1C(=O)N(CC)CC
  -20	.	2	6	-1	i	-5	-19
O=C(O)C(Cc1c[nH]c2ccccc12)NS(=O)(=O)c1ccc(Cl)cc1 (stereo unspecified)
  -17	-7	-8	4	-3	i	-9	-15
CCCOc1cc(C)c(S(=O)(=O)NC2CC(C)(C)NC(C)(C)C2)cc1C
  .	.	-6	-2	0	i	5	-3
O=C1CC[C@@H](CN(Cc2ccccn2)Cc2nc(Cc3ccccc3)no2)N1
  -7	-5	0	2	5	i	5	2
O=C(COc1ccccc1)NCC(=O)Nc1cccc(S(=O)(=O)NC2=NCCC2)c1
  18	-4	-3	0	-2	i	8	-9
CC(C)(C)C(=O)Nc1ccc(C(=O)N/N=C/c2ccccc2OC(=O)c2ccc(Cl)cc2)cc1
  .	37	1	-4	-1	i	10	16
CC(C)CNC(=O)C1(C)CCCN1C(=O)c1ccc2ccccc2n1 (stereo unspecified)
  -17	1	.	1	-2	.	.	.
Cc1cccc(N)c1-c1c(C)cccc1N
  .	-10	4	1	1	i	0	-2
CCOC(=O)C1(CCOC)CCN(CC(C)Cc2ccc3c(c2)OCO3)CC1 (stereo unspecified)
  -6	7	2	2	-1	i	-8	8
CCCn1c(=O)c2[nH]cnc2n(-c2ccc(Cl)cc2)c1=O
  .	13	-9	7	-1	i	-5	10
O=C(COC(=O)/C=C/c1ccc(S(=O)(=O)N2CCOCC2)cc1)NC1CCCCCCC1
  .	10	-3	-2	-5	i	1	-8
O=C(CN1CCN(S(=O)(=O)c2ccc(Cl)cc2)CC1)Nc1ccc2c(c1)OCO2
  11	.	13	.	.	i	5	1
COc1ccc(S(=O)(=O)NNC(=O)C2CC(c3cccnc3)=NO2)cc1 (stereo unspecified)
  .	20	8	1	3	i	4	-11
C=CC[C@@H](CC(=O)N[C@H](CO)Cc1ccccc1)C(=O)N[C@@H](COC(=O)[C@@H](CC=C)Cc1ccc(F)cc1)Cc1c[nH]c2ccccc12
  -10	-116	.	-5	0	.	.	.
O=C(Cc1ccc(Cl)cc1Cl)NC1CCCCCC1
  3	10	-7	-6	6	i	-5	.
COC(=O)CN(c1ccc(C)cc1)S(=O)(=O)c1ccc2c(c1)n(C)c(=O)c(=O)n2C
  -13	.	-4	0	-6	i	1	9
N#C/C(=C(/O)CO/N=C/c1ccccc1Cl)c1nc2ccccc2[nH]1
  .	7	0	-6	-2	i	-13	-3
Cc1ccc(C)c(S(=O)(=O)Nc2cc3c4c(c2)CCN4C(=O)CC3)c1
  -15	7	.	-2	4	i	.	-7
COc1ccc([C@@H]2C[C@H](c3ccccc3)Oc3cc(OC)c(OC)c(OC)c32)cc1
  -16	15	5	-4	-1	i	12	-6
Cc1ccc(C(=O)NCCC(=O)NCc2cc(=O)n(C)c(=O)n2C)cc1
  -12	2	-5	2	-3	i	2	-4
OCC1(Cc2ccc(Cl)cc2)CCN(Cc2ccc(Oc3ncccn3)cc2)CC1
  -8	6	-2	4	1	i	-11	16
O=C1N=C(N2CCCC2)S/C1=C\c1ccccc1
  -13	-42	7	-1	0	i	2	7
Cc1ccc(C(C(=O)NC(C)(C)C)N(C(=O)c2csnn2)c2cccc(F)c2)o1 (stereo unspecified)
  -14	20	8	2	-5	i	-6	-6

# More records
# Every second line gives: Yeast UUG start	Env fusion inh	eIF4H FP inh	MT1-MMP act inh RFP	MT1-MMP act inh	Rce1 inhib	PABP polyA inh	CSC inhib
Oc1cccc(/C=N/N(Cc2ccccc2)c2ccccc2)c1
  .	1	1	-11	5	.	11	87*
CC(C)CCNC(=O)NC(=O)CSc1nnc2ccccn12
  -18	.	7	2	4	i	-6	13
COc1ccc(CNC(=O)c2nn(-c3ccccc3)cc2OC)cc1
  15	-3	-2	0	1	i	-3	-13
COC(=O)Cc1ccc(NC(=S)NCCCO)cc1
  -14	0	1	0	4	i	7	-4
CCN=C1SCC(=O)N1c1ccc(OC)cc1
  -6	-83	-8	6	4	i	-5	-16
CC1CCN(c2cc(N3CCOCC3)c(F)cc2[N+](=O)[O-])CC1
  -8	.	0	-13	10	i	-2	-1
Cn1c2nc3ccccc3c-2nc2ccccc21
  12	-25	.	-1	2	.	.	.
CC1CCCC(C)N1C(=O)COC(=O)C(Cc1ccccc1)NC(=O)c1cccs1 (stereo unspecified)
  .	-9	9	6	4	i	15	-6
N#C/C(=C\c1ccc(Cl)c([N+](=O)[O-])c1)c1ccccn1
  .	-99	7	-14	1	i	3	0
COc1ccc(-c2nc3ccccc3n2Cc2ccccc2)cc1
  -21	.	-9	-7	0	i	-6	-5
O=C(Nc1cccc(F)c1)NC1CCN(Cc2ccccc2)CC1
  -2	2	-6	3	3	i	13	-5
COc1ccc(/C=C(\C#N)C(=O)Nc2cc(S(=O)(=O)N3CCOCC3)ccc2N2CCCC2)cc1
  5	-7	-15	-1	-3	i	-12	-10
CCN(C(=O)CN1c2ccccc2CC1C)c1c(N)n(Cc2ccccc2)c(=O)[nH]c1=O (stereo unspecified)
  .	-9	5	7	-6	i	1	-19
O=C(NC(=O)N1CCN(c2cccc(Cl)c2)CC1)c1ccccc1
  -7	19	2	2	4	i	35	58
CCOC(=O)c1c(C)c(C#N)c2c3ccccc3ccn12
  -20	.	6	0	2	i	-6	-1
Cn1c(=O)oc2cc(S(=O)(=O)N3CCC(C(=O)N4CCc5ccccc5C4)CC3)ccc21
  -15	11	-8	5	-3	i	0	-8
CCCNC(=O)CSc1ccc(S(=O)(=O)N2CCCCC2)cn1
  -29	9	.	3	5	.	.	.
Cc1ccc(S(=O)(=O)c2ncccc2N)cc1
  -15	5	-6	2	-2	i	-7	-13
COc1ccc(C(CC(=O)Nc2ccc(C)cc2)NC(=O)C(F)(F)F)cc1 (stereo unspecified)
  -23	.	0	7	3	i	4	-8
COc1ccccc1C1CC(c2ccc(NS(C)(=O)=O)cc2)=NN1S(=O)(=O)c1ccccc1 (stereo unspecified)
  -4	0	-17	0	-4	i	6	0
COc1ccc(C(=O)N2CCCC(c3nc(-c4ccc(OC)c(OC)c4)no3)C2)c(OC)c1 (stereo unspecified)
  .	11	6	1	3	i	-1	6
Cc1ccc2ccc(S(=O)(=O)n3nc(C)cc3C)cc2c1
  -7	.	-2	5	-1	i	10	3
CCCC(=O)N1CCN(c2ccc(NC(=O)c3ccccc3)cc2)CC1
  1	-29	-5	2	1	.	-2	.
COc1ccc(NC(=O)CSCC(=O)N2CCCc3ccccc32)cc1
  4	-2	.	4	4	i	.	-12
CCN(CC)CCCN(Cc1cc2cc3c(cc2[nH]c1=O)OCO3)C(=S)Nc1ccccc1
  -24	-23	1	-12	-23	i	-31	19
COc1cc2c(cc1OC)C(c1ccc(SC)cc1)CC(=O)N2 (stereo unspecified)
  -3	-7	-4	-6	4	i	0	-4
COc1ccc(-c2nnc3ccc(SCC(=O)Nc4nccs4)nn23)cc1OC
  .	19	-2	0	5	i	-6	-8
O=C(NCc1ccccc1Cl)c1ccc2c(=O)n(CC3CCCO3)c(=S)[nH]c2c1 (stereo unspecified)
  -14	-2	-11	-3	5	.	-9	-10
O=C(NCc1cccs1)c1cc(-c2ccccc2)nc2ccccc12
  .	.	5	-10	1	i	-2	0
Cc1ccc(S(=O)(=O)N2CCCCC2)cc1C(=O)NCCc1ccccc1
  -13	9	-2	-1	5	i	-8	-6

# (more compounds)
# Every second line gives: Yeast UUG start	Env fusion inh	eIF4H FP inh	MT1-MMP act inh RFP	MT1-MMP act inh	Rce1 inhib	PABP polyA inh	CSC inhib
O=C1C(Oc2ccccc2)C(c2cccs2)N1Cc1ccc2c(c1)OCO2 (stereo unspecified)
  -13	.	-7	-6	-2	i	7	16
O=S(=O)(Nc1ccc(C(F)(F)F)cc1)c1cnc[nH]1
  -10	-42	-2	-1	-6	i	-7	.
CCOc1ccc(S(=O)(=O)N(C)c2ccc(OCC(=O)NCC3CCCO3)cc2)cc1 (stereo unspecified)
  9	2	5	1	1	i	-1	-16
COc1ccc(CCNC(=O)C2CCCN(S(C)(=O)=O)C2)cc1 (stereo unspecified)
  -15	-5	-9	1	-4	i	2	-8
